# Screens: PubChem, Fisher Drug Discovery Resource Center
# NPYLR7 ag – agonists of mosquito NPYLR7 receptor, primary screen, cell-based, Aedes aegypti, calcium fluorescence, mosquito biting behavior; activation, % at 10 µM; 0.15% of 270,000 active; HEK293T NPYLR7/Galpha15, GCaMP6s calcium fluorescence; Aedes aegypti neuropeptide Y-like receptor 7 (NPYLR7); in the data active = activation above about 40%;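 also: 0% = vehicle and 100% = reference agonist at the receptor; some compounds past the cut are filed as inactive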
# NPYLR7 ag max-min – recorded beside NPYLR7 ag, whose call it bears; activation, %; measured here: Max-Min RFU normalised activation; some inactives read as strong as hits;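 span of the calcium signal over five minutes; 0% = vehicle and 100% = native peptide agonist; compound fluorescence can raise it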
# * hit, by the source's call; & = joins results of further samples. The list is partial; rates above refer to the full screens.
SMILES,NPYLR7 ag,NPYLR7 ag max-min
Cc1ccc(C(=O)Nc2ccc(N3CCN(C(=O)c4cc(C)oc4C)CC3)nc2)cc1,2,-4
COc1cccc(C(=O)Nc2ccc3c(c2)OCCCO3)c1,4,4
Fc1cc(Br)ccc1CSc1nnc2ccccn12,14,8
Clc1cccc(NC2CCOCC2)c1N1CCCC1,8,5
Cc1ccc(-c2nnc(NC(=O)C3CCCN(S(C)(=O)=O)C3)o2)cc1C (stereo not drawn),-3,-2
CCCCn1c(-c2cccc(OCc3ccccc3)c2)nc2ccccc2c1=O,8,4
CC1CN(C(=O)NCCNc2ncc(Cl)cc2Cl)CC(C)(C)O1 (stereo not drawn),11,9
CN1CCC(Cc2noc(-c3cn(CCN)nn3)n2)CC1,30,17
CCCCOc1ccc(-c2nc(C=Nc3ccc(OC)cc3)c(O)o2)cc1,-3,-11
C=CCNC(=O)c1ccccc1N1CCC(NC(=O)c2ccc(Cl)cc2)CC1,2,12
Cc1nc(SCC(=O)O)c(C#N)c(C)c1C,7&-3,3&-8
N#CC1C(=N)Oc2n[nH]c(-c3ccc(Br)cc3)c2C1c1cccnc1 (stereo not drawn),-3,-10
Cc1ccnn1CCC(=O)NC1CC(=O)N(Cc2ccc(F)cc2)C1 (stereo not drawn),6,0
CCN1CCN(c2c(CN(CCC(C)C)C(=O)Cc3ccc(OC)cc3)c(C)nn2-c2ccccc2)CC1,3,18
C=CCN(Cc1ccc(F)cc1)C(=O)c1ccc(C2CCCN2)s1 (stereo not drawn),8,5
O=C(CC1c2ccccc2CCc2ccccc21)NCCCO,4,-1
Cc1cc(C(=O)CSc2nnc(C3CC3)n2C2CC2)c(C)s1,0,6
O=C(c1ccc(Cl)cc1)N(Cc1nccn1Cc1cccc(C(F)(F)F)c1)CC1CCCO1 (stereo not drawn),16,17
COc1ccc(Nc2nc(NCc3ccc4c(c3)OCO4)nc3nccnc23)cc1,2,5
CC(=O)N1CCN(C(=O)CN2C(=O)NC3(CCCCCC3)C2=O)CC1,1,-1
COc1ccc(CCc2nnc(CCC(=O)NCCc3ccco3)o2)cc1,-1,-2
COc1cn(CC(=O)Nc2ccc(C)cc2)c(CN2CCC(C)CC2)cc1=O,3,0
CCC(NC(=O)N1CC(C)c2ccccc21)c1c(C)nn(C)c1C (stereo not drawn),8,6
CCC1CCCCN1Cc1nc2c(c(=O)n(C)c(=O)n2C)n1Cc1ccc(F)cc1 (stereo not drawn),2,8
Cc1ccc(S(=O)(=O)NC(=O)C2(C)CCN2C(=O)Cc2ccc(Cl)cc2Cl)nc1 (stereo not drawn),3,-1
c1nc2c(c(NCc3ccc4nsnc4c3)n1)CCNC2,23,10
O=C(NC1CCN(c2ccccc2C(=O)N2CCN(C(=O)C3CCCO3)CC2)CC1)c1cccs1 (stereo not drawn),4,6
Cc1nn(C)c(Oc2ccc(Cl)cc2)c1CN1CC[C@H](CO)[C@@H](O)C1,11,3
N#Cc1ccc(COC(=O)C2CC(=O)N(CCc3ccccc3)C2)cc1 (stereo not drawn),-1,-1
Cc1ccc(-n2c(SCc3ccc(F)cc3)nnc2C(Cc2ccccc2)NC(=O)CSc2ccccc2)cc1 (stereo not drawn),0,5
CC(=O)c1cc(CN2CCCCC2c2nc3ccc(F)cc3[nH]2)cs1 (stereo not drawn),0,-9
Cc1ccccc1-c1cnc(C(O)c2ccc(C(C)(C)C)cc2)[nH]1 (stereo not drawn),0,-3
COc1cc(C(=O)Nc2nc(C)cs2)c([N+](=O)[O-])c(OC)c1OC,0,-3
CCOC(=O)C1=C(C)N=c2s/c(=C\c3cccnc3)c(=O)n2C1c1ccc(OC)c(OC)c1 (stereo not drawn),12,15
CCCCc1ccc(C(=O)N(CC)C(C)c2nc3ccccc3c(=O)n2Cc2ccccc2)cc1 (stereo not drawn),-1,5
CCN(CC)C(=O)Oc1ccc2c(ccn2Cc2ccc(C#N)cc2)c1-c1ccc(F)cc1,5,3
CC(C)c1ccc(CN2CCN(CC(=O)Nc3c(F)c(F)c(F)c(F)c3F)CC2)cc1,33,23
O=C(CSc1nc(=O)n2ccccc2n1)N1CCCCCC1,3,1
CC1CCC(CC(=O)N2CCCC2c2nnc3c(C(F)(F)F)cccn23)CC1 (stereo not drawn),-8,-15
CCc1nc2ccccc2n1Cc1ccc(F)cc1,-1,0
COc1ccc(CCC(=O)OCC(=O)c2ccc(C)cc2)cc1,7,3
COc1ccc(S(=O)(=O)Nc2ccc(Br)cc2Br)cc1OC,0,4
COCC(C)NC(=O)c1ccc(CSC)cc1 (stereo not drawn),1,-1
Brc1ccc(C=NN=C2CC(c3ccccc3)N=N2)o1 (stereo not drawn),2,8
O=C(NC1CCCCC1)c1cccc(CSc2nc(Cl)cc(N3CCCC3)n2)c1,21,17
Cc1ccc(OCCN(C)C(=O)C2(S(=O)(=O)c3ccccc3)CC2)c(C)c1,-1,-2
COC(=O)c1ccc(/C=C(/Cl)c2nc3ccccc3c(=O)o2)cc1,-4,-6
CN(C)C(=O)N1CCC(C(=O)N2CCOC(Cc3cccc4ccccc34)C2)CC1 (stereo not drawn),4,1
O=C1CSc2ccc(NC(=O)C3=Cc4ccccc4OC3)cc2N1,1,5
Cc1cc(=O)n2c(n1)SCC2CC(=O)NCCC(c1ccccc1)c1ccccc1 (stereo not drawn),-1,-4
O=C(CN1CCCCCC1)Nc1cccc(S(=O)(=O)N2CCCC2)c1,0,24
Cc1onc(-c2ccccc2)c1C(=O)NC1C(=O)N2C1SC(C)(C)C2C(=O)O (stereo not drawn),-8,-16
O=C(/C=C/c1cccs1)N1CCCC(Nc2ccc3c(c2)OCCO3)C1 (stereo not drawn),-5,-12
Cc1c(C(=O)N(C)Cc2ccc(F)cc2)sc(=O)n1Cc1cccc(F)c1,0,-2
O=C(CCc1nc2ccccc2[nH]1)N1CCCN2CCC[C@H]2C1,1,22
Cc1cc(C)c2c(N)c(-c3cc(=O)oc4cc5c(cc34)CCC5)sc2n1,-3,-3
COc1ccccc1C(=O)N1CCN(C(C(=O)Nc2ccc3c(c2)OCO3)C2CCCC2)CC1 (stereo not drawn),10,13
O=C(CCl)N(Cc1ccco1)C12CC3CC(CC(C3)C1)C2,6,6
C=C(C)Cn1c(SCC(=O)Nc2ccc(O)cc2)nc2sc3c(c2c1=O)CCC3,-8,-11
CCc1ccc2c(CSc3nncn3C(C)C)cc(=O)oc2c1,-2,-5

# Filtered by structure: those above with a furan ring, fused or not.
SMILES,NPYLR7 ag,NPYLR7 ag max-min
Cc1ccc(C(=O)Nc2ccc(N3CCN(C(=O)c4cc(C)oc4C)CC3)nc2)cc1,2,-4
COc1ccc(CCc2nnc(CCC(=O)NCCc3ccco3)o2)cc1,-1,-2
Brc1ccc(C=NN=C2CC(c3ccccc3)N=N2)o1 (stereo not drawn),2,8
O=C(CCl)N(Cc1ccco1)C12CC3CC(CC(C3)C1)C2,6,6

# Carrying on.
SMILES,NPYLR7 ag,NPYLR7 ag max-min
CCCN1C(=O)C(c2c(C(C)C)[nH]n(-c3ccc(Cl)cc3)c2=O)=C([n+]2ccccc2)C1=O,-3,4
CCOc1cccc(C=C2N=C(c3ccccc3F)OC2=O)c1OC(F)F,1,12
Cc1cc(Cl)c(NC(=O)N(C)CCC(C)O)c2cccnc12 (stereo not drawn),7,6
O=C(Cc1ccc2c(c1)OCO2)N1CCc2[nH]nc(-c3ccccc3F)c2C1,15,3
COc1ccc(C(C2Sc3ncnn3C2=O)N2CCC3(CC2)OCCO3)cc1 (stereo not drawn),6,4
O=C(N/N=C\c1ccccc1C(F)(F)F)c1cc(-c2ccccc2)nc2ccccc12,12,11
Cc1[nH]c2ccc(C(=O)Nc3nc(CS(C)(=O)=O)no3)cc2c1C,4,4
O=C(Cc1csc(Nc2ccc(OC(F)(F)F)cc2)n1)NCC1CCCO1 (stereo not drawn),11,4
O=C(c1cn(CCCc2ccccc2)nn1)N1CCN(c2ncccn2)CC1,3,-3
Cn1c(=O)c2[nH]c(-c3cccc4ccccc34)c(O)c2n(C)c1=O,-1,-3
CCc1nc2c(OCc3cccc(Cl)c3)cccn2c1N(C)C(=O)C(C)C,-5,-1
Cc1nc2ccccn2c(=O)c1NC(=O)C(C)(C)C,4,3

# Compound profiles (already shown):
# Cn1c(=O)c2[nH]c(-c3cccc4ccccc34)c(O)c2n(C)c1=O as listed: NPYLR7 ag = -1; NPYLR7 ag max-min = -3
# CCOc1cccc(C=C2N=C(c3ccccc3F)OC2=O)c1OC(F)F as listed: NPYLR7 ag = 1; NPYLR7 ag max-min = 12
# Cc1cc(Cl)c(NC(=O)N(C)CCC(C)O)c2cccnc12 (stereo not drawn) as listed: NPYLR7 ag = 7; NPYLR7 ag max-min = 6

# (listing goes on)
SMILES,NPYLR7 ag,NPYLR7 ag max-min
CCc1ccc(NC(=O)CSc2nccn3nc(-c4ccc(C)cc4)cc23)cc1,-1,-4
COc1cccc(-c2cc(C(=O)NCCN3CCOCC3)n3nc(C(C)(C)C)cc3n2)c1,-6,5
Cc1cc(-n2c(C)cc(C(=O)CN3C(=O)NC4(CCC(C)CC4)C3=O)c2C)no1 (stereo not drawn),10,8
O=C(N1CCCN(c2nc3ccccc3nc2-c2ccccc2)CC1)C(Cl)(Cl)Cl,5,-1
C=CCC1NCCc2c(Br)cccc21 (stereo not drawn),15&-1,13&-2
O=C(Nc1ccc2c(c1)OCO2)c1ccc(CSc2nnc(-c3ccncc3)n2Cc2ccccc2)cc1,2,15
CNc1ncccc1C(=O)N(C)Cc1ncc[nH]1,14,4
CCCSCc1ccc2oc(C(=O)O)cc2c1,2,6
CC1CN(C2CCN(C(=O)CN(C)c3cnccn3)CC2)CCO1 (stereo not drawn),7,3
C=CCN1CCN(c2cc(OC)ccc2OC)C(=O)C1C (stereo not drawn),3,11
CCc1noc(C)c1C(=O)N1CCc2c([nH]c3ccccc23)C1c1ccccc1C (stereo not drawn),26,27
COc1cccc(NC(=O)NCC(c2ccc(N(C)C)cc2)N2CCc3ccccc3C2)c1OC (stereo not drawn),-4,2

# 4 entries picked at random from those above:
SMILES,NPYLR7 ag,NPYLR7 ag max-min
O=C(Nc1ccc2c(c1)OCO2)c1ccc(CSc2nnc(-c3ccncc3)n2Cc2ccccc2)cc1,2,15
CCc1ccc(NC(=O)CSc2nccn3nc(-c4ccc(C)cc4)cc23)cc1,-1,-4
CNc1ncccc1C(=O)N(C)Cc1ncc[nH]1,14,4
Cc1cc(-n2c(C)cc(C(=O)CN3C(=O)NC4(CCC(C)CC4)C3=O)c2C)no1 (stereo not drawn),10,8

# Next records
SMILES,NPYLR7 ag,NPYLR7 ag max-min
Cn1nc(CN2CCN(C(=O)c3ccccc3)CC2)c2c(Cl)cccc21,1,4
Cc1cc(C=C2Sc3ccccc3N2C)cc(C)[n+]1Cc1ccncc1,51*,46*
Cc1ccc(S(=O)(=O)N(Cc2cccc(OS(=O)(=O)c3ccc(F)cc3)c2)Cc2ccco2)cc1,-2,-7
CC(=O)C(Sc1nc(-c2ccccc2F)nc2c1c(=O)n(C)c(=O)n2C)=C(C)O,-2,-6
COCCCNC(=O)CCCn1ncn2c(cc3occc32)c1=O,5,1
Cc1ccc2c(C)cc(=S)[nH]c2c1,6,3
NC(=O)CCSc1ncnc2sc3c(c12)CCCC3,-1,-4
COc1ccc(-n2c(C)c[n+]3c2CCc2ccccc2-3)cc1,6,3
Cc1ccc(C2c3cccn3CCCN2Cc2ccccc2O)cc1 (stereo not drawn),2,14
CC(C)C(C)(C#N)NC(=O)CN1C(=O)NC(C)(c2cccc(C(F)(F)F)c2)C1=O (stereo not drawn),7,5
O=C(Nc1ccc(S(=O)(=O)N2CCCC2)cc1Cl)C1=COCCO1,5,3
CC(C)(C)Nc1nc(-c2ccc3[nH]c(=O)oc3c2)cs1,-2,-2
CCc1nc2n(n1)C(=O)C(C(c1cccc(C(F)(F)F)c1)N1CCN(C)CC1)S2 (stereo not drawn),-5,-8
O=C1CC2Sc3ccccc3N=C2N1Cc1ccc(Cl)cc1Cl (stereo not drawn),-5,19
CC(=O)NC(N(C)Cc1ccccc1)C(Cl)(Cl)Cl (stereo not drawn),-15,-25
Cc1ccc(Cc2nsc(N(CCC(=O)NCCN3CCCC3)Cc3ccco3)n2)cc1,-2,8
N#CC1=C(SCC(=O)OCc2ccccc2)NC(=O)CC1c1ccc(F)cc1 (stereo not drawn),-2,-7
CC(c1ccccn1)N(C)Cc1ccc(F)cc1Cl (stereo not drawn),4,6
CC(NC(=O)CN1CCCC(c2cc(C(N)=O)n[nH]2)C1)c1ccco1 (stereo not drawn),-1,-4
O=C(Nc1ccc(Oc2ccccc2)cc1)c1cc(C2CC2)n(C2CCS(=O)(=O)C2)n1 (stereo not drawn),3,-1
Cc1nn(C)c(C)c1C(C)NC(=O)c1cc(-c2ccc(O)cc2)n[nH]1 (stereo not drawn),-3,-5
Clc1cc2c(cc1Br)OCCN2Cc1ccccn1,10,6

# Two of the compounds above, with each value named.
> Cc1nn(C)c(C)c1C(C)NC(=O)c1cc(-c2ccc(O)cc2)n[nH]1 (stereo not drawn)
  NPYLR7 ag: -3; NPYLR7 ag max-min: -5
> Clc1cc2c(cc1Br)OCCN2Cc1ccccn1
  NPYLR7 ag: 10; NPYLR7 ag max-min: 6
